Mtb hypoxia inh – PubChem AID 1159583; fluorescence inhibition, % (no concentration beside the values); M. tuberculosis hypoxia-regulated fluorescent reporter, fluorescence; 300,000 compounds, 0.1% hits;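 active = 35 to 45% if threefold the growth effect, above 45% if 1.5-fold the growth effect; inactive = the rest, general growth blockers included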;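 note: wells of about 50 µL received 100 nL stock; 0% = vehicle wells and 100% = reference inhibitor wells; whole bacteria with a GFP reporter of the hypoxia response; strong numbers were not always called active; many hits fall short of the cut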
BJeLR lethal – MLPCN primary cell-based screen for lethality selective to Ras in HRASV12 cells; inhibition, % (test concentration not listed); AID 1554, 2009; BJeLR (HRASV12) viability, CellTiter-Glo ATP luminescence, 48 h; reference of the scale not given here; 300,000 compounds, 0.17% hits;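 active = replicate mean above 50%; inconclusive = above 50% but judged a plate artefact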;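 note: 50 nL library stock added to about 25 µL; numbers are from one replicate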
Sa RN4220 lethal – growth inhibition of S. aureus RN4220, primary screen, OD600; 16 h; inhibition, % (concentration not given with the values); 330,000 compounds, 0.33% hits;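 active = z-score of -3 or lower and OD600 up to 0.18 on both plates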;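 note: plate controls were untreated cells for no effect and reference antibiotic for full effect; stock transfer was 100 nL into about 80 µL; one replicate is shown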
PrP UTR inh – inhibition of PrP 5' UTR reporter expression. cell-based PrP 5' UTR mRNA reporter, plate reader. inhibition, % (concentration not given with the values). 340,000 compounds, 0.35% hits;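 active = every replicate at 50% or more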;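 note: 0 = median of the neutral control wells; tested in H4 reporter cells; numbers are from one replicate; inactives centre near -14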
ugtP null kill – growth inhibition of ugtP-null S. aureus, primary screen, RN4220 ugtP deletion, OD600. 330,000 compounds, 0.54% hits. AID 1259309, 2017. 16 h; some inactives read as strong as hits. growth inhibition, % (test concentration not listed);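 active = z-score under -3 and OD600 up to 0.15 on both plates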;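 note: plate controls were untreated wells for no effect and antibiotic for full effect; wells of about 80 µL received 100 nL stock; the first replicate is given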
Bead autofluor – flagged as autofluorescent in microsphere protease counterscreen; compound autofluorescence counterscreen, microsphere flow cytometry; active compounds read high; fluorescence intensity (no concentration beside the values); 360,000 compounds, 3.1% hits; AID 624483;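 active = at least 3 SD above the mean of all compounds, about 16000 in these data; inconclusive = too few beads counted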;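 note: 100 nL of 1 mM stock went into each well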
Mtb hypoxia inh growth – second read-out of Mtb hypoxia inh, no call of its own (marks repeat the call); growth inhibition, %; measured here: M. tuberculosis growth (absorbance);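 0% = vehicle and 100% = reference antibiotic; read after six days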
* marks the source's active call; other numbers are inactive results; ? = inconclusive; · = not tested or not shown.

SMILES	Mtb hypoxia inh	Mtb hypoxia inh growth	BJeLR lethal	Sa RN4220 lethal	PrP UTR inh	ugtP null kill	Bead autofluor
Cc1c(NC(=O)C(C)N2C(=O)c3ccccc3C2=O)c(=O)n(-c2ccccc2)n1C (stereo not drawn)	-0.1	5.5	3.9	1.5	-12.9	-3.9	2554
COc1ccc2c(C#CCCO)c(-c3ccc(S(C)(=O)=O)cc3)sc2c1	5.9	6.3	·	-2.3	-19.2	-21.3	3190
CC(=O)c1sc(C(C)(C)C)cc1NC(=O)CCC(=O)O	4.4	-2.5	-3.1	7.9	-10.8	4.6	6295
COC(=O)c1[nH]c2cc(OC)ccc2c1NC(=O)CN1CCC(C(N)=O)CC1	2.3	6.4	-3.5	2.0	-3.8	3.3	3914
COc1ccc(C(=O)N/N=C\c2coc3ccc(C)cc3c2=O)cc1	·	·	-10.9	·	-9.8	·	?
CCOc1ccc(NC(=O)CN(C)C(=O)c2c(C)noc2C)cc1OCC	6.2	4.4	4.6	3.2	-0.2	-2.5	5225
Cc1cc(C)nc(NC(=S)Nc2ccc(Br)cc2Cl)c1	-3.3	-1.1	-7.4	2.2	-24.7	-2.6	4403
N#CCCn1cc(C(=O)Nc2ccc(C(=O)O)cc2)c(-c2cccs2)n1	7.5	0.9	2.1	-0.5	-21.9	9.3	2207
Cc1ccc(CN2CCN(Cc3ccon3)CC2CCO)cc1 (stereo not drawn)	3.0	-1.5	6.3	2.2	-22.6	2.9	4487
CC(=O)N1c2ccc(S(=O)(=O)N3CCCC3C(=O)Nc3ccc(C)cc3)cc2CC1C (stereo not drawn)	·	·	-3.2	3.9	-9.6	6.7	5365
COC(=O)C(Cc1ccc(O)cc1)NC(=O)CCC(=O)Nc1ccc(S(N)(=O)=O)cc1 (stereo not drawn)	·	·	-2.7	0.7	2.4	3.6	2371
NC(=S)c1cn(C2OC(CO)C(O)C2O)c2ncnc(N)c12 (stereo not drawn)	·	·	61.9*	3.5	61.1*	-7.8	3505
CCn1c(NC(=O)Nc2cccc(C)c2C)cc2sccc21	-0.6	0.3	3.7	4.7	-9.5	-9.9	4524
CC(=O)Nc1ccc(NC(=O)CCn2cnnn2)cc1	6.7	2.5	-21.3	-1.5	-19.1	2.5	3812
O=C(O)c1cc(=O)c2c(Cl)cc(Cl)cc2[nH]1	-1.4	10.5	3.1	1.2	-3.4	-1.2	4300
COc1ccc(C=NNc2cc(N3CCOCC3)ncn2)c(OC)c1	14.5	0.8	·	3.9	·	1.4	·
CC(C(=O)c1ccc(Br)cc1)[n+]1cccc2ccccc21 (stereo not drawn)	-5.3	3.0	-4.5	0.2	7.2	3.5	16961*
COC(=O)c1c(Oc2nc(OC)cc(OC)n2)cccc1Oc1nc(OC)cc(OC)n1	-2.2	3.3	2.4	2.0	-36.2	0.1	2784
Cc1cc(Cl)ccc1C(=O)C1CCCN(C(=O)c2cccc(N3CCCC3=O)c2)C1 (stereo not drawn)	-2.8	-3.6	2.7	6.8	-17.5	-5.5	4986
CC(=O)Nc1ccc(S(=O)(=O)N2CCN(c3nnnn3-c3ccccc3)CC2)cc1	16.2	5.2	4.3	4.7	-26.2	5.4	3273
COC(=O)c1c(C)oc2ccc(OC(=O)N3CCOCC3)cc12	·	·	5.0	6.8	-1.7	9.3	4590
CC(C)N(C(=O)COC(=O)CCC(=O)c1cccs1)c1ccccc1	8.3	5.8	·	-2.3	6.4	-2.8	·
COC(=O)c1cc(S(=O)(=O)NCCc2cccc(C)c2)cn1C	-3.5	-6.5	0.0	7.2	-1.9	12.4	3898
CCc1nnc(NC(=O)C2CCCN2C(=O)NC2CCCCC2)s1 (stereo not drawn)	6.7	6.5	-2.2	5.2	0.3	-3.7	4140
CC(C)(C)C(=O)OCc1nc(-c2ccc(C(F)(F)F)cc2)cs1	7.3	13.4	-7.4	1.8	5.7	15.6	3916
COc1ccc(C2CC(=O)c3cnc(NC(=O)c4cccc(OC)c4)nc3C2)cc1 (stereo not drawn)	0.3	13.9	·	-2.9	-32.7	13.3	8999
O=C(Nc1ccn(Cc2cccc3ccccc23)n1)c1cccnc1	-8.4	-7.4	-0.3	3.0	-2.5	0.7	2020
O=S(=O)(Nc1nc2ccccc2nc1NCCN1CCOCC1)c1cccc(Cl)c1	-6.3	3.0	9.9	0.5	-18.9	-4.1	3654
Cc1ccc(COC(=O)CCN=C2NS(=O)(=O)c3ccccc32)cc1	-9.3	-1.0	-7.2	-2.1	-9.1	0.7	5803
CCOc1ccc(CCNS(=O)(=O)c2ccc3c(c2)NC(=O)CC(=O)N3)cc1OCC	-5.0	0.5	-4.0	1.3	-24.0	-1.3	3264
O=C(NNC(=O)C1CCCCC1)c1cnccn1	7.2	5.9	19.7	4.7	-17.3	-3.7	22696*
COc1ccc(C2(CNC(=O)Cc3ccc(OC)c(OC)c3)CCOCC2)cc1	-6.6	5.7	3.6	4.8	-34.0	-1.1	3765
COc1ccc(C(=O)Nc2ccc(C(=O)N3CCCCC3C)cc2)c(OC)c1OC (stereo not drawn)	0.2	-1.1	-5.6	5.2	-2.4	14.0	4530
O=c1c2sccc2nc(SCc2cc(=O)n3ccccc3n2)n1Cc1ccccn1	6.1	-1.7	5.3	3.1	·	-0.9	·
Cc1[nH]n(-c2ccccc2)c(=O)c1N=Nc1ccc2c(c1)OCO2	-2.5	-3.1	-2.2	3.4	-66.4	0.9	·
COc1ccc(/C=C2\COc3ccccc3C2=O)cc1OC	4.1	-0.8	-3.0	24.4	-13.0	6.3	2611
Cc1onc(-c2ccccc2Cl)c1C(=O)OCn1nnc2ccccc2c1=O	-4.6	-3.4	-4.9	6.9	-4.0	-3.1	9696
CN(C)c1ncc(C2=C(Cl)C(=O)C(N3CCCC3)=C(Cl)C2=O)s1	14.5	-6.4	-27.3	19.3	-5.1	27.1	15254
CCC(C(=O)NCc1cccnc1)c1ccccc1 (stereo not drawn)	12.2	19.1	13.8	9.3	-22.2	2.7	4174
CC1(C)OC(c2ccccc2)=C/C(=C\C=NNC(=O)c2ccncc2)O1	·	·	·	3.4	·	-6.1	·
CC(C)(C)C(=O)Cn1ncc(NC2CC2)c(Br)c1=O	·	·	-9.8	1.2	-32.7	1.3	2565
CC1C(=O)C(C)C(c2cc(Cl)ccc2O)NC1c1cc(Cl)ccc1O (stereo not drawn)	-6.4	-8.2	1.6	4.4	-8.4	-33.7	4148
CCn1c(C)nc2cc(C(=O)OC)ccc21	-1.2	3.9	5.6	7.2	-11.8	2.6	3939
O=C(O)c1ccc(-c2ccc(C=NNc3ccc([N+](=O)[O-])cc3)o2)cc1	11.1	5.2	·	18.7	·	17.6	·
CCCc1cc(=O)oc2cc(OCC(=O)NCCc3ccc(S(N)(=O)=O)cc3)ccc12	6.5	1.0	9.6	0.3	-38.5	5.4	4958
CCCCOC(=O)CSCC(=O)N1N=C(c2cccs2)CC1c1ccc(F)cc1 (stereo not drawn)	0.6	5.8	1.8	-2.4	-6.3	-10.5	2386
COc1cccc(C(C(=O)NC2CCCCC2)N(C(=O)Cc2cccs2)c2ccc(-n3cnnn3)c(OC)c2)c1 (stereo not drawn)	-1.3	-1.3	5.2	1.4	-22.0	0.8	22984*
CCCn1nnc(NC(=O)c2ccc(OCC)c(Cl)c2)n1	9.6	1.9	-4.1	5.0	-0.4	11.4	5621

Full records as entered above:
`CCCn1nnc(NC(=O)c2ccc(OCC)c(Cl)c2)n1` is entered as Mtb hypoxia inh = 9.6; Mtb hypoxia inh growth = 1.9; BJeLR lethal = -4.1; Sa RN4220 lethal = 5.0; PrP UTR inh = -0.4; ugtP null kill = 11.4; Bead autofluor = 5621
`CN(C)c1ncc(C2=C(Cl)C(=O)C(N3CCCC3)=C(Cl)C2=O)s1` is entered as Mtb hypoxia inh = 14.5; Mtb hypoxia inh growth = -6.4; BJeLR lethal = -27.3; Sa RN4220 lethal = 19.3; PrP UTR inh = -5.1; ugtP null kill = 27.1; Bead autofluor = 15254
`Cc1onc(-c2ccccc2Cl)c1C(=O)OCn1nnc2ccccc2c1=O` is entered as Mtb hypoxia inh = -4.6; Mtb hypoxia inh growth = -3.4; BJeLR lethal = -4.9; Sa RN4220 lethal = 6.9; PrP UTR inh = -4.0; ugtP null kill = -3.1; Bead autofluor = 9696

(listing goes on)
SMILES	Mtb hypoxia inh	Mtb hypoxia inh growth	BJeLR lethal	Sa RN4220 lethal	PrP UTR inh	ugtP null kill	Bead autofluor
CCOC(=O)c1c(C)oc2c1c1c(c3ccccc32)OCN(CCCC(=O)O)C1	19.2	2.0	2.5	13.7	-66.5	34.3	4766
ClCCOCOCCCl	11.8	10.2	·	1.7	-5.0	9.4	5736
CCC(CC)C(=O)Nc1c(C(=O)N2CCN(c3ccccc3)CC2)oc2ccccc12	7.0	2.4	11.2	-6.0	-21.9	8.6	·
CCN(CC)c1ccc(C=NN2CC(=O)NC2=S)cc1	13.4	10.7	·	-0.8	·	-0.9	·
Cc1occc1C(=O)NNC(=O)c1ccccc1Br	5.6	3.6	5.2	1.7	-8.9	-0.5	2203
CN(C)c1nc(N)nc(-c2ccco2)n1	·	·	-0.9	2.0	-16.4	2.7	6186
C=C(C)CSc1nnc([C@@H](NC(=O)OC(C)(C)C)C(C)CC)o1 (stereo partly drawn)	-12.3	0.7	-2.7	-0.9	-29.4	-4.7	20796*
CS(=O)(=O)N1CCC(Oc2ccccc2C(=O)NC2CCOC2)CC1 (stereo not drawn)	-2.1	-2.0	8.7	0.8	2.1	5.7	4337
CC(=O)Nc1cccc(NC(=O)C2CC(=O)N(C3CCCCC3)C2)c1 (stereo not drawn)	1.8	-5.8	-1.7	2.9	-10.4	6.2	4135
COc1ccc(C=NNC(=S)NCC2CCCO2)cc1 (stereo not drawn)	-3.1	3.1	·	5.7	·	-0.7	·
CCCc1cc(C(=O)N2CCCC(C(=O)c3ccc(Cl)cc3)C2)n(C)n1 (stereo not drawn)	-0.1	5.7	4.4	0.4	-11.3	0.6	5640
O=C(CN1CCC(n2nnc3cc(F)ccc32)CC1)Nc1ccccc1N1CCOCC1	4.1	7.6	7.0	10.4	-28.4	-6.7	8432
COc1ccc(NC(=O)c2cccs2)cc1C(=O)N1CCN(c2ccccc2)CC1	4.6	7.4	6.8	2.9	-18.3	-2.0	5591
CCCN1CNC(=S)N(c2ccccc2C)C1	8.9	-0.2	0.2	2.7	6.8	-1.5	4306
COc1ccc(S(=O)(=O)NCC2CCC(C(=O)NCCCN3CCCC3=O)CC2)cc1 (stereo not drawn)	3.9	-11.6	-9.5	1.4	-34.0	0.4	4187
COc1ccc(CN=C2NC(=O)CC(C(=O)Nc3ccc(Cl)cc3)S2)cc1 (stereo not drawn)	-3.9	-0.3	-5.1	0.0	-8.4	-7.3	2627
Nc1ccn(CC(=O)NCc2ccc3[nH]ccc3c2)c(=O)n1	6.6	4.5	·	4.8	-17.7	3.1	3998
Cc1ccc(Nc2nc(=O)c3cc([N+](=O)[O-])ccc3s2)cc1	2.5	10.7	13.7	0.3	-6.2	3.9	4636
CCC(CC)C(=O)Nc1cc(NC(=O)C(CC)CC)cc(C(=O)O)c1	·	·	-8.3	2.7	-24.7	2.3	3131
S=C(c1ccc(-c2cc(Cl)ccc2Cl)o1)N1CCOCC1	16.5	9.9	-0.4	15.1	-16.2	5.6	11636
Cn1c(O)c(C=NCCN2CCOCC2)c(=O)[nH]c1=S	16.5	6.4	3.6	3.1	-7.4	9.3	4187
O=C(NNS(=O)(=O)c1cccc(Cl)c1)c1cc(-c2ccc(F)cc2)nc2ccccc12	5.6	-4.5	2.1	-18.6	-10.2	-1.8	3871
CC(=O)/C(N=Nc1ccc(C(=O)O)cc1[N+](=O)[O-])=C(\C)O	6.4	-3.1	-5.0	1.6	2.9	5.8	?
COc1ccc(C(=O)CN2CCOCC2)cc1F	·	·	-5.5	-10.8	-5.1	-0.1	2904
COc1ccc(C(CNC(=O)/C=C/c2c(Cl)nc3ccccn23)N(C)C)cc1 (stereo not drawn)	9.9	6.6	9.9	5.6	-9.3	-0.7	5801
Cc1sc2nc(CSCC(=O)Nc3ccc(Cl)cc3F)[nH]c(=O)c2c1C	-1.6	3.4	·	8.8	-5.7	2.1	4835

Compound activity as filed in PubChem BioAssay.

Hits appear at their usual frequency, and some 3.9% of all compounds hit somewhere here.
